VACV mCherry inh: qHTS for Stage-Specific Inhibitors of Vaccinia Orthopoxvirus: mCherry Reporter Primary qHTS; Vaccinia virus mCherry reporter infection, fluorescence; about a quarter of the inactives have no number; Potency, µM (doses to about 36.5 µM), without a hit: at the highest dose activity change, negative = inhibition, hits mostly inhibitors; hit rate 0.63% among 310,000; AID 720579, 2013; active = well fitted inhibition curve with a large enough effect; inconclusive = small, poorly fitted or top-dose-only effect; inactive = no such curve, though single readings can be large or run the other way; tested in A549 cells; note: nearly all actives have a fitted effect of over 35% in size; inactives centre near -10
VACV Venus inh: qHTS for Stage-Specific Inhibitors of Vaccinia Orthopoxvirus: Venus Reporter Primary qHTS; Vaccinia virus Venus reporter expression, fluorescence; Potency, µM (titrated, usually from 36.5 µM), for inactives: top-dose activity change, negative = inhibition, hits mostly inhibitors; hit rate 0.46% among 330,000; AID 720580, 2013; active means well fitted inhibition curve with a large enough effect; inconclusive means small, poorly fitted or top-dose-only effect; inactive means no such curve, though single readings can be large or run the other way; tested in A549 cells; note: nearly all actives have a fitted effect of over 30% in size; inactives centre near -10
The depositor's hits bear a star; i = inactive; ? = inconclusive; · = no result given; [ ] = another dose, or the depositor's remark. % is set by controls: 0 for no effect and ±100 for the full control effect; potency is the fitted concentration of half-maximal effect.

canonical_smiles	VACV mCherry inh	VACV Venus inh
O=C(COc1ccc2c3c(c(=O)oc2c1)CCC3)N1C[C@H]2C[C@@H](C1)c1cccc(=O)n1C2	0.6%	-0.6%
COc1ccc(CN(C)C(=O)c2oc3ccccc3c2CSC)cc1F	-22.7%	-4.8%
O=C(c1ccc(F)cc1)C1CCN(Cc2cn[nH]c2-c2ccccc2)CC1	-19.9%	-12.1%
CC1CCCCC1NC(=O)c1ccco1 (stereo not given)	-12.2%	-11.0%
CC(=C/C(=O)O)/C=C/c1ccco1	-11.7%	-11.9%
COc1ccccc1NC(=O)c1ccccc1C(=O)O	i	-7.1%
NS(=O)(=O)c1ccc(NC(=O)CCCCC(=O)Nc2ccc(S(N)(=O)=O)cc2)cc1	i	-15.3%
COc1ccc(N2CCN(C(=O)C3CCN(S(=O)(=O)c4cnc[nH]4)CC3)CC2)cc1	-3.0%	-0.6%
CC(=O)N1CCN(c2ccccc2NC(=O)c2ccc3ccccc3c2)CC1	-10.8%	2.8%
C=Cc1ccc(CN2C(=O)N(c3ccc(CC)cc3)S(=O)(=O)c3ccccc32)cc1	-4.0%	-5.3%
Cc1cc(=O)[nH]c2nnc(SCC(=O)Nc3ccc(F)cc3F)n12	i	-9.7%
CCN(Cc1ccccc1)C(=O)CS(=O)(=O)c1ccccc1	i	-14.2%
CCCCCc1ccnc(CC(=O)c2ccc(OC)cc2)c1	-27.7%	-12.7%
COc1ccc(C(CC(=O)N2CCCC(C)C2)c2c(OC)cc(OC)c3ccc(=O)oc23)cc1 (stereo not given)	-17.4%	-10.0%
Cn1c(SCc2cccnc2)nc2c(c1=O)SCC2	i	-8.6%
C=CCn1c(SCC(=O)NC2CCCC2)nc2scc(-c3ccco3)c2c1=O	-19.3%	-9.5%
COc1cccc(N(CC(=O)NC2CCCC2)C(=O)CCCC(=O)Nc2ccccn2)c1	-8.9%	-1.6%
COc1cccc(-c2nc(CS(=O)(=O)CC(=O)N3CCN(c4ccccn4)CC3)c(C)o2)c1	-22.6%	-18.2%
COc1ccc(Oc2nc3c(c(=O)n(C)c(=O)n3C)n2Cc2ccccc2)cc1	-8.0%	-14.7%
CCOc1ccccc1NS(=O)(=O)c1c(C(=O)OC)sc2cccc(F)c12	-10.1%	-4.5%
N#Cc1nc(/C=C/c2ccc(F)cc2)oc1N1CCCCC1	-9.6%	3.7%
Cc1noc(/C=C/N(C)C)c1S(=O)(=O)N1CCc2ccccc21	-3.6%	-11.4%
Cc1cc(N=Nc2ccccc2)cc(C)c1NC(=O)C(F)(F)F	i	-22.9%
Cc1c(C(=O)N2CCC(c3nc4ccccc4s3)CC2)oc2cc(Br)ccc12	-13.6%	1.0%
Cc1nnc(NC(=O)/C=C/c2ccco2)s1	-9.6%	0.1%
CCC(=O)Nc1cc(ON=C(C)C)cc([N+](=O)[O-])c1	-20.8%	-14.0%
COc1ccc(CN2CCN(S(=O)(=O)c3ccc(NC(C)=O)cc3)CC2)c(OC)c1OC	-11.4%	-8.2%
CC1CCCCN1C(=O)C1COc2ccccc2O1 (stereo not given)	i	-7.5%
Cc1nc(NC(=O)COC(=O)c2cc3c(s2)CCC(C)C3)c(Cl)cc1Cl (stereo not given)	i	3.5%
COc1ccc2oc(C(=O)OCC(=O)NCc3ccco3)c(C)c2c1	-2.0%	-2.9%
CCC(C(=O)OC)n1nnc2sc(-c3ccccc3)cc2c1=O (stereo not given)	-7.1%	-9.6%
CC(OC(=O)Cc1ccsc1)C(=O)Nc1ccc(C(N)=O)cc1 (stereo not given)	-18.5%	-15.7%
COC(=O)c1sccc1NC(=O)c1c(F)c(F)c(F)c(F)c1F	i[7.34 µM]	-6.3%[7.34 µM]
CC1CCCN(C(=O)Nc2cccc(NC(=O)N3CCCC(C)C3C)c2)C1C (stereo not given)	·	-14.3%
COc1ccccc1-c1cc(C(=O)N/N=C/c2ccc(C)s2)c2ccccc2n1	?	-8.6%
Cc1cc2c(SCC(=O)Nc3ccccc3O)ncnc2s1	i	2.4%
CCCCCCCN1CCC(=O)N([C@H](CO)c2ccccc2)CC1	-11.8%	-10.0%
CCOc1ccc(S(=O)(=O)NCCC(=O)NCC(c2cccs2)N2CCOCC2)cc1 (stereo not given)	-10.7%	-15.1%
O=C1CC(c2ccc3c(c2)OCO3)c2cc3c(cc2N1)OCO3 (stereo not given)	·	-18.7%
O=C(COc1ccc(Br)cc1)OCC(=O)c1ccc[nH]1	-5.4%	-2.5%
Cc1c(Cl)cccc1NC(=O)Nc1nnc(N2CCCCCC2)s1	0.4%	-8.1%
Cn1c(=O)oc(=O)c2ccccc21	i	-11.4%
COc1ccc(CCN2C(=O)c3oc4cc(C)cc(C)c4c(=O)c3C2c2ccccc2F)cc1OC (stereo not given)	17.1%	1.4%
CCN(CC)C1CCN(C(=O)c2cnn(-c3nccc(-c4ccco4)n3)c2C(C)C)C1 (stereo not given)	-10.6%	-3.6%
COC(=O)c1cc(NC(=O)c2ccc(Cn3cc(Cl)cn3)o2)cc(C(=O)OC)c1	-12.4%	-1.7%
CC(=O)c1ccc(NC(=O)CN2C(=O)CCc3ccccc32)cc1	-3.4%	-5.3%
CCn1c(=O)n(CC2CCC(C(=O)NC(C)C)CC2)c(=O)c2sccc21 (stereo not given)	-5.7%	-10.3%
O=C1[C@H]2CC3C=CC2(O3)[C@@H]2OCCCN12 (stereo not given in full)	i	-3.8%
COc1ccccc1N(C(=O)c1snc(C(N)=O)c1N)C(C(=O)NCCC(C)C)c1ccco1 (stereo not given)	-17.4%	-12.7%
Cc1ccccc1N1CCN(CCCN2C(=O)CC(=C(c3ccccc3)c3ccccc3)C2=O)CC1	·	-19.2%
Cc1[nH]ccc(=O)c1OCc1ccc(Cl)cc1	-15.1%	-17.9%
C=CCn1c(-c2cc3cccc(OC)c3o2)n[nH]c1=S	i	-7.3%
S=c1[nH]nc(-c2ccccc2)n1/N=C/c1cccc(Br)c1	-22.0%	-17.0%
COc1cccc(CNC(=O)CSCC(=O)Nc2cc(C)on2)c1	i	-7.7%
CCc1nc2ccc(C(=O)NCCc3ccc(OC)c(OC)c3)cc2nc1CC	-9.6%	-16.7%
COCC(C)n1c(C)cc(C(=O)COC(=O)c2ccc3ncsc3c2)c1C (stereo not given)	-15.1%	1.0%
Cc1ccc2occ(CC(=O)Nc3nnc(C(C)C)s3)c2c1	-6.3%	-8.1%
Cc1ccc(S(=O)(=O)NNc2nc3ccccc3nc2C(F)(F)F)cc1	-10.1%	-7.0%
O=C(CCS(=O)(=O)c1ccccc1Cl)NCCC1=CCCCC1	-9.5%	-0.5%
Cc1cnc(NC(=O)CCCc2nc3ccccc3s2)s1	·	5.62µM*

Part of the list above in order of length of the SMILES, low to high:
canonical_smiles	VACV mCherry inh	VACV Venus inh
CC1CCCCN1C(=O)C1COc2ccccc2O1 (stereo not given)	i	-7.5%
O=C(COc1ccc(Br)cc1)OCC(=O)c1ccc[nH]1	-5.4%	-2.5%
COc1cccc(-c2nc(CS(=O)(=O)CC(=O)N3CCN(c4ccccn4)CC3)c(C)o2)c1	-22.6%	-18.2%

Next part
canonical_smiles	VACV mCherry inh	VACV Venus inh
Cc1cccc(OCC(O)Cn2c(NCc3cccnc3)nc3c2c(=O)[nH]c(=O)n3C)c1 (stereo not given)	·	-21.1%
CC1(C)CC(=O)C(/C=N/n2cnc3ccccc3c2=O)=C(O)C1	-21.8%	-15.8%
COc1ccc(S(=O)(=O)N(C)C2CCS(=O)(=O)C2)cc1OC (stereo not given)	-14.6%	-9.9%
CCc1nnc(NC(=O)[C@@H](NC(=O)c2ccc(C(C)(C)C)cc2)C(C)C)s1	?	-24.5%
Cc1cc([N+](=O)[O-])c(=O)[nH]c1C	i	-3.2%
O=C(NCc1nc2ccccc2[nH]1)C1=C[C@H](c2coc3ccccc3c2=O)C[C@H](OCCCCO)O1	i	-16.9%
CC(C)[C@H](NC(=O)OCc1ccccc1)C(=O)OCC(=O)NC1(C#N)CCCC1	-12.4%	-7.7%
Cc1cc2cc3c(cc2nc1SCC(=O)N1CCN(C(=O)c2ccco2)CC1)OCO3	-12.8%	-9.4%
COc1cc(=O)n2c(c1C(=O)NCc1ccc3c(c1)OCO3)CCN(C(=O)c1cccc(F)c1)CC2	-5.5%	-0.4%
Cc1ccccc1C(=O)N1CCC(C(=O)Nc2ccc(S(=O)(=O)N3CCCC3)cc2)CC1	-21.5%	-19.2%
Cc1ccsc1C(=O)Nc1cccc(S(=O)(=O)N(C)C)c1	i	-7.8%
C[C@]12C(=O)N(c3ccc(F)cc3)C(=O)N1[C@H]1c3ccccc3OC[C@@H]1[C@H]2c1ccccc1	i	-8.2%
COC(=O)C1=C(c2ccc(OC)c(OC)c2)C[C@@H]2CC[C@H]1N2C(=O)N1CCc2cc(OC)c(OC)cc2C1	?	?
COc1ccc(-n2ncc(C(=O)N3CCOCC3)c2C2CCN(C(=O)OC(C)(C)C)CC2)cc1	-9.8%	-9.3%
CCN(CC)C(=O)CSc1n[nH]c(=S)n1N	-3.9%	3.5%
O=C(COc1ccccc1[N+](=O)[O-])N/N=C/c1ccncc1	i	-2.9%
Cc1[nH]c2ccccc2c1C(=O)C(=O)NCCCn1ccnc1	-0.3%	-11.9%
O=C(O)CCC(=O)Nc1ccccc1C(=O)NCc1ccco1	-4.6%	-3.2%
O=C1c2ccccc2C(c2nnnn2-c2ccc3c(c2)OCCO3)N1Cc1cccs1 (stereo not given)	-16.0%	-4.8%
O=C1CCCC2C3CC(CN12)C1CCCCN1C3 (stereo not given)	i	0.0%
Cc1ccc(C)c(C2C(=O)c3ccccc3C2=O)c1	i	-1.2%
O=C(c1cccc(Br)c1)c1nc2ccccc2[nH]c1=O	-5.8%	-11.8%
CCOc1ccccc1NC(=O)Nc1ccc(Cl)cc1	?	-29.1%
CCCCOc1cccc(NC(=O)CSc2nnc(C)s2)c1	-5.6%	0.8%
Nn1c(SCCOc2ccc(Cl)cc2)nnc1-c1cccnc1	-14.8%	4.2%
Oc1ccc(-c2nc3ccccn3c2Nc2ccc3c(c2)OCCO3)cc1	-13.6%	-2.0%
Brc1cccc2sc(N3CCN(c4ccccc4)CC3)nc12	-8.6%	-8.1%
O=C1C=CC(=O)N1c1cccc2cccnc12	-7.6%	22.5%
CC(NC(=O)COc1ccccc1-c1ccccc1)c1ccccc1 (stereo not given)	i	-5.7%
O=C(NCCN1CCOCC1)c1cc(-c2ccccc2Cl)nc2ccccc12	-15.2%	-11.8%

One compound at a time, as listed above. Values in the order: VACV mCherry inh	VACV Venus inh
CC(NC(=O)COc1ccccc1-c1ccccc1)c1ccccc1 (stereo not given) is listed with i	-5.7%
O=C(O)CCC(=O)Nc1ccccc1C(=O)NCc1ccco1 is listed with -4.6%	-3.2%

Following part:
canonical_smiles	VACV mCherry inh	VACV Venus inh
CCNCCC(CCC(C)C)c1ccc2c(c1)OCO2 (stereo not given)	?	-17.3%
CS(=O)(=O)N1CCN(c2ccccc2NC(=O)c2ccc(Cl)cc2)CC1	·	8.5%
CC(C)C[C@@H](CN1CCC[C@@H]1CN1C(=S)NC[C@@H]1Cc1ccc(O)cc1)N1C[C@H](Cc2ccc(O)cc2)N(CC2CCCCC2)C1=S	-22.0%	-29.1%
CC(=O)CC1c2cc(F)ccc2C=C(c2ccsc2)N1c1ccc(C#Cc2cncn2C)cc1 (stereo not given)	8.0%	-2.0%
CCc1cnc(Nc2nc(C(N)c3ccccc3Cl)cs2)nc1 (stereo not given)	i	-8.5%
O=C(NCCCc1ccccc1)Nc1cccc(Cl)c1	-15.3%	-9.9%
O=C(OCC(=O)C12CC3CC(CC(C3)C1)C2)c1ccccc1O	i	-18.2%
CCOC(=O)c1c(C)oc2ccc(O)c(CN(C)C)c12	·	-10.4%
CCCC(=O)c1ccc(N2CCN(C(=O)c3ccccc3)CC2)c(F)c1	·	?
Cc1ccc(-n2nnnc2SC(C(=O)c2c[nH]c3ccccc23)c2ccccc2)cc1 (stereo not given)	-10.7%	-7.0%
COc1cccc(C2C=C(c3cccs3)Nc3ncnn32)c1OC (stereo not given)	·	13.2%
COc1ccc(C(=O)NC(=S)Nc2ccc3oc(=O)ccc3c2)cc1	-9.6%	-10.8%
COc1ccc(N2CCN(C(=O)c3cccc4nc(C)oc34)CC2)cc1	-3.3%	-12.2%
Cc1ccc(NS(=O)(=O)c2c(C)[nH]c(C)c2C(=O)N2CCCCC2)c(C)c1	-14.4%	-4.7%
COc1ccccc1N1CCN(C(c2ccc(Cl)cc2)c2nnc(-c3cccc(F)c3)o2)CC1 (stereo not given)	-13.7%	-9.5%
Cc1ccccc1OCCC(=O)N1CCN(S(=O)(=O)c2ccc(Cl)cc2)CC1	i	-12.7%

Screens: PubChem, National Center for Advancing Translational Sciences (NCATS)
